Screens (PubChem BioAssay)
Calb FLC: affects C. albicans growth with fluconazole | growth inhibition, % (no concentration beside the values) | C. albicans CaCi-2 (fluconazole-resistant clinical isolate) + fluconazole, Alamar Blue growth, 48 h | 0.57% of 300,000 active | AID 1979;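 active = most replicates above 75%; inconclusive = exactly half above 75%; inactive = most below 75%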;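 also: all wells also contain fluconazole at 8 µg/ml as a sub-toxic cotreatment; 0% = median of DMSO wells and 100% = median of geldanamycin control wells; wells of about 8 µL received 7.5 nL stock; the first replicate is given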
HNF4A DNA FP: change in binding of human HNF4 alpha to DNA. P41235. HNF4a-FITC DNA binding, fluorescence polarization, 1 h. activity change, % at 10 µM. 0.3% of 360,000 active. AID 1224865; in the data active = activity change above about 30%, passing the limit was not always enough;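 also: controls were the assay level and a saturating level of protein; the project sought stronger binding though the title names inhibitors; some compounds called inactive have numbers as strong as hits; positive values seem to mean higher polarization but the record does not say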
Target sequence (P41235 whole entry, looked up): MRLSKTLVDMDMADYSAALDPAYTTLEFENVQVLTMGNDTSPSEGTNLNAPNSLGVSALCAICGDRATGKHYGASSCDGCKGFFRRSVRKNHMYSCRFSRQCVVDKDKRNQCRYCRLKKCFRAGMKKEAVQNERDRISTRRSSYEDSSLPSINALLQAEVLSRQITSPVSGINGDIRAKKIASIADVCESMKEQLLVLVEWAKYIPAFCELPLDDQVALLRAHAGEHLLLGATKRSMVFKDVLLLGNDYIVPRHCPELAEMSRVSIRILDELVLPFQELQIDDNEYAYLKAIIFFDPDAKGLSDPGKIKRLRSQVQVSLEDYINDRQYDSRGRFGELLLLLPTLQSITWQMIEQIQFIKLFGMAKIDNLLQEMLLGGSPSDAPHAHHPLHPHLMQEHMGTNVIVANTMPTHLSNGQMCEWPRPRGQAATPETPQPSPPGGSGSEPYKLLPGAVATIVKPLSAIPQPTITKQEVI
Beta2AR agonist: activates human beta-2 adrenergic receptor causing internalization. response, % (no concentration beside the values). Am2.2-beta2AR cells, FAP receptor internalization, flow cytometry; reference of the scale not given here. 0.43% of 340,000 active;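 active = response above a set limit, near 3 SD of response in nonfluorescent compounds, cut at about 42% in these data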;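 also: stock transfer was 100 nL into about 11 µL; a reference agonist was the positive control; negative values mostly stem from fluorescent compounds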
Target sequence (P07550 whole entry, looked up): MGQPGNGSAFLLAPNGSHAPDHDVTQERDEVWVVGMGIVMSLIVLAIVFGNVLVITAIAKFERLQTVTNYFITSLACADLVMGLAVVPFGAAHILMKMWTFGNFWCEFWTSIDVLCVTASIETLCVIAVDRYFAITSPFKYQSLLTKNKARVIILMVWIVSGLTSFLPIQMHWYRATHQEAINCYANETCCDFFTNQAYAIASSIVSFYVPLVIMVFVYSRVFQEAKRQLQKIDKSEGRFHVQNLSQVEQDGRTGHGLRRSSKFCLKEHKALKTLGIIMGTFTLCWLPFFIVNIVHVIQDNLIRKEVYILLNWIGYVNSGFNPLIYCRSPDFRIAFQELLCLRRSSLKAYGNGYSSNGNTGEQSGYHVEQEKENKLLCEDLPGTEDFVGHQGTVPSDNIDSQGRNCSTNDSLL
LANA-H2A inh: blocks KSHV LANA binding to histone H2A/H2B | AID 2629 | 0.6% of 320,000 active | inhibition, % (test concentration not listed) | Q9QR71 | cell-free LANA-H2A/H2B peptide, fluorescence polarization; in the data active = inhibition mostly above about 10%, no sharp cut-off; inactive = mostly below about 6.7%;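 also: stock transfer was 7.5 nL into about 10 µL; 0% = median of vehicle wells and 100% = median of positive control wells; one replicate is shown; the record names a cut of 25% in any replicate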
ALR H2O2 inh: human ALR oxidase inhibition via reduced H2O2. inhibition, % (test concentration not listed). 3.8% of 290,000 active. purified ALR, DTT oxidation, H2O2 HRP-luminol luminescence. P55789;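 active = mean and each replicate at 75% or more; inconclusive = only one of the two met; inactive = neither met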;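 also: stock transfer was 7.5 nL into about 7.5 µL; 0% = neutral wells and 100% = wells with inactivated enzyme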
Target sequence (P55789 whole entry, looked up): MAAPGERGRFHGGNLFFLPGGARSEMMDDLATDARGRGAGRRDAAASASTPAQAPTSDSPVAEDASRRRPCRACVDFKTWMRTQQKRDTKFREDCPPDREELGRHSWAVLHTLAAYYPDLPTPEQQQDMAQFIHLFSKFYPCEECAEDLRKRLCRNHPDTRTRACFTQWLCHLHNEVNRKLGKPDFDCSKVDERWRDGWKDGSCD
RanGTP-Impb inh: disruptors of Ran-importin-beta complex formation – biochemical, FRET, CFP-Ran, YFP-importin-beta, homogeneous, primary screen | cell-free CFP-Ran/YFP-importin-beta FRET ratio | AID 2216 | inhibition, % (concentration not given with the values) | 1.1% of 300,000 active;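 active = most replicates above 15%; inconclusive = exactly half above 15%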;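 also: 0% = DMSO wells and 100% = Ran loaded with GDP instead of GTP; wells of about 40 µL received 100 nL stock; the first replicate is given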
Vif A3G: HIV-1 Vif–A3G interaction blockers – biochemical, TR-FRET, GST-Vif 1-94, biotin-A3G peptide, dose response retest, primary screen (AID 1117319) | TR-FRET GST-Vif / biotin-A3G peptide binding; higher % means a stronger effect; test concentration not given here; strong numbers were not always called active | inhibition, %, or IC50 in µM where a hit was titrated | 0.57% of 260,000 active;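 active = above the screen mean plus three standard deviations and confirmed in dose response; inconclusive = results disagree or hit not tested in dose response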;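 also: Vif residues 1-94 fused to GST binding biotinylated APOBEC3G peptide 110-148; 0% = full assay without inhibitor and 100% = GST in place of GST-Vif; retest series ran down from 100 µM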
Starred values were filed as active, the others as inactive; u = inconclusive; x = not tested or not shown. This is a random part of the collection; about 6.3% have a hit in one of these screens.

SMILES | Calb FLC | HNF4A DNA FP | Beta2AR agonist | LANA-H2A inh | ALR H2O2 inh | RanGTP-Impb inh | Vif A3G
CC(=O)COc1ccc2c(-c3ccccc3)cc(=O)oc2c1 | 23 | -1.0 | -4 | 4.5 | -2 | -0.6 | -6%
CS(C)(=O)=NS(=O)(=O)c1ccc(Cl)cc1 | -7 | -2.3 | 2 | -3.8 | -1 | 2.4 | 7%
COc1ccc(Cl)cc1N(CC(=O)N1CCCCCC1)S(C)(=O)=O | 2 | 0.8 | 1 | -1.2 | 8 | 0.0 | x
Cc1ccc(C)c(C(=O)CN2C(=O)NC3(CCc4ccccc43)C2=O)c1 (configuration not stated) | x | -1.4 | -28 | -6.6 | 1 | x | 10%
O=C(COC(=O)c1cccnc1Cl)Nc1cc(S(=O)(=O)N2CCCCCC2)ccc1Cl | x | 0.3 | 7 | x | x | x | 10%
Cc1ccc(NC(=O)CCS(=O)(=O)c2cccc3nonc23)cc1Cl | 30 | 7.1 | 4 | 12 | x | 3.3 | x
COc1ccccc1NC(=O)Nc1nc(CC(=O)NC2CCCC2)cs1 | -1 | 0.2 | 9 | -3.4 | 4 | -4.9 | -8%
COc1ccc(N2CCN(C(=O)COC(=O)CCOc3ccc(C(C)(C)C)cc3)CC2)cc1 | -2 | -2.3 | 7 | 0.7 | -5 | -4.1 | 0%
CCN(CC(=O)Nc1sc2c(c1C#N)CCCC2)CC(=O)NC1CCS(=O)(=O)C1 (configuration not stated) | 2 | -0.6 | -7 | 0.1 | x | 1.1 | 0%
O=C(O)c1ccc(NC(=O)C2(c3ccccc3)CCCC2)cc1 | -10 | -0.3 | 0 | 0.2 | -3 | -3.9 | 5%
CCCN(CCC)S(=O)(=O)c1ccc(C(=O)N2CCCc3ccccc32)cc1 | -3 | -2.1 | 9 | 2.2 | -4 | -85 | -3%
COc1ccc(C(C)(C)NC(=O)C2CCC(=O)N(CCCN3CCCC3=O)C2)cc1 (configuration not stated) | -14 | 0.6 | -2 | 0.4 | -9 | -1.6 | x
COC(=O)CCC(=O)NNC(=O)CCC(=O)Nc1cccc(Cl)c1C | 5 | 0.2 | 3 | 4.0 | -1 | 0.1 | 0%
CCOCCCNS(=O)(=O)c1ccc2c(c1)OCCO2 | -2 | -1.4 | -5 | 1.8 | 5 | 3.4 | 5%
CCOc1ccccc1C1CC(=O)NC(SCC)=C1C#N (configuration not stated) | -9 | 0.1 | -1 | -0.2 | -7 | 1.0 | 71%
O=C1c2cccc(Sc3ccccc3)c2C(=O)c2c(Sc3ccccc3)cccc21 | -10 | 0.7 | -3 | 3.6 | 2 | -0.2 | 7%
Cc1ccc(N/C=C2\CCCCC2=O)nc1 | 4 | -4.0 | -3 | -0.2 | -4 | -4.2 | 1%
COc1ccc(-n2ncc3c2CC(C)(C)CC3NC(=O)C2CCN(C(C)=O)CC2)cc1 (configuration not stated) | 4 | -2.7 | -1 | -1.5 | 0 | -0.1 | x
O=C(NCC1CCCN(C(=O)NCc2ccccc2)C1)c1ccc2c(c1)OCO2 (configuration not stated) | -4 | -1.2 | -4 | -2.0 | x | -0.6 | -5%
O=C(CCCc1ccccc1)Nc1ccnn1C1CCN(Cc2ccccn2)CC1 | -6 | -1.7 | 1 | -14 | -23 | 1.9 | 5%
O=C(CSc1nnc(-c2ccccn2)o1)Nc1ccccc1C(F)(F)F | -6 | 0.0 | 10 | -4.0 | x | 1.2 | x
O=C(NCCS(=O)(=O)NCc1ccccc1Cl)c1ccccc1 | -1 | -1.4 | -3 | -0.5 | 0 | 6.8 | x
CCCn1c(SCc2ccccc2)nc2c1c(=O)[nH]c(=O)n2C | -3 | -2.5 | 2 | 1.2 | -7 | 1.1 | 26%
O=C1NN(c2ccccc2)C(=O)C2C3C=CC(C4CC34)C12 (configuration not stated) | -4 | -0.8 | 1 | -2.5 | -13 | -1.1 | -4%

Ordered by molecular weight (smallest number first): some entries from above.
SMILES | Calb FLC | HNF4A DNA FP | Beta2AR agonist | LANA-H2A inh | ALR H2O2 inh | RanGTP-Impb inh | Vif A3G
Cc1ccc(C)c(C(=O)CN2C(=O)NC3(CCc4ccccc43)C2=O)c1 (configuration not stated) | x | -1.4 | -28 | -6.6 | 1 | x | 10%
O=C1c2cccc(Sc3ccccc3)c2C(=O)c2c(Sc3ccccc3)cccc21 | -10 | 0.7 | -3 | 3.6 | 2 | -0.2 | 7%
COc1ccc(N2CCN(C(=O)COC(=O)CCOc3ccc(C(C)(C)C)cc3)CC2)cc1 | -2 | -2.3 | 7 | 0.7 | -5 | -4.1 | 0%

Remaining list, next part.
SMILES | Calb FLC | HNF4A DNA FP | Beta2AR agonist | LANA-H2A inh | ALR H2O2 inh | RanGTP-Impb inh | Vif A3G
CCCOc1ccc(C(=O)N2CCN(c3ccc(N)cc3Cl)CC2)cc1 | -19 | -3.3 | -6 | -0.3 | 25 | 2.9 | 18%
O=C(Nc1cccc(-n2cnnn2)c1)c1cnccc1Cl | -12 | 2.8 | 2 | -0.1 | -2 | -1.5 | x
O=C(O)c1cc2cc(Cl)cc(Cl)c2oc1=O | 1 | 0.6 | -2 | -15 | -6 | -2.0 | 12%
COCCSc1ccccc1C(=O)Nc1cc([N+](=O)[O-])ccc1OC | -34 | 0.3 | -4 | -5.0 | x | -2.1 | 13%
CCN(CC)c1ccc(C(=O)N/N=C(\C)c2cccnc2)cc1 | 19 | 1.4 | -7 | -2.2 | 25 | 6.0 | -4%
CCOC(=O)c1c(C)[nH]c(C(=O)COC(=O)c2cnccn2)c1C | x | 4.0 | -4 | 1.4 | 1 | x | -4%
CCCCCCC(=O)NNC(=O)c1c(O)c2ccccc2n(CCC)c1=O | -6 | -1.3 | -3 | 1.6 | -3 | -0.2 | 4%
CC(NC(=O)C1CCCC1)C1CC2CCC1C2 (configuration not stated) | -1 | -4.4 | -14 | -11 | 1 | 1.0 | -6%
O=C(CCc1ccccc1)N/N=C\c1cc2c(cc1Br)OCO2 | 22 | 3.6 | -5 | 5.7 | 2 | 6.7 | x
COc1ccc(CCN2CC(C(=O)Nc3ccc4c(c3)OCO4)CC2=O)cc1OC (configuration not stated) | -14 | 0.4 | -6 | -1.2 | 0 | 1.5 | -1%
COc1ccc(OCCCC(=O)Nc2cccc(S(=O)(=O)N3CCCCCC3)c2)cc1 | x | 0.9 | -5 | -2.3 | -5 | x | 1%
O=C(N/N=C/c1ccccc1[N+](=O)[O-])c1ccc2c(c1)OCCO2 | 0 | 0.0 | -15 | 7.6 | 16 | -0.3 | -3%
CC12CCC(C(=O)N(NC(=O)c3cc(Cl)ccc3O)C1=O)C2(C)C (configuration not stated) | -2 | -1.1 | -2 | -1.2 | 8 | -0.5 | 1%
COc1ccc(Nc2nnc(C)c(=O)[nH]2)c(OC)c1 | 4 | 3.9 | 18 | -7.6 | 10 | -3.7 | 15%
COC(=O)CC1=NC(=O)CS1 | -4 | 2.6 | 1 | -3.1 | 14 | -1.3 | 5%
C/C=C/c1ccc(OCCCCN2C(=O)NC(C)(C)C2=O)c(OC)c1 | -8 | -3.5 | 11 | x | x | -1.2 | 0%
NS(=O)(=O)c1ccc(CCNCC(=O)NC2CC2)cc1 | -6 | -2.7 | 5 | 5.1 | -1 | 0.7 | x
CCC1CCCCN1C(=O)CNCC1CCCO1 (configuration not stated) | 14 | -2.1 | -3 | 3.9 | -3 | -1.9 | 9%
O=C(CCC(=O)c1ccccc1)NCCOc1ccccc1 | 31 | 2.7 | -4 | 4.3 | x | 3.5 | x
O=C(CSc1nnnn1-c1ccc(F)cc1)NC1CCCCC1 | -9 | -1.4 | -5 | 0.9 | x | -2.4 | -1%
Nc1nc(N2CCN(c3cccc(Cl)c3)CC2)n[nH]1 | -13 | -5.0 | 9 | 2.9 | 99* | -2.0 | 2%
COc1ccc(COC(=O)C2=C(C)NC(=O)NC2c2cccc(OC)c2OC)cc1 (configuration not stated) | 27 | -0.5 | -6 | -1.5 | 27 | 0.8 | x
CN(C)c1cccc(C(=O)Nc2nnc(Cc3ccccc3)s2)c1 | 3 | 0.5 | -2 | 3.1 | -19 | 9.0 | x
CN(C)S(=O)(=O)c1ccc(Cl)c(NC(=O)CN2CCCCCC2)c1 | -7 | 0.6 | -24 | -2.6 | -3 | -1.4 | 6%
CC1(C)Cc2c(cnn2-c2ccc(F)cc2)C(NC(=O)CCCN2CCCCC2=O)C1 (configuration not stated) | 2 | 7.6 | -19 | -4.1 | -2 | -0.7 | x
Cc1cc(C)n2nc(C(=O)OCCOc3ccc(F)cc3)nc2n1 | -6 | -1.1 | 0 | 9.6 | -8 | 4.9 | 23%
CC(=O)OC[C@H]1O[C@H](C/C=N/OC[C@@H](O)[C@H]2O[C@@H]3OC(C)(C)O[C@@H]3[C@H]2O)C=C[C@@H]1OC(C)=O | -3 | x | x | 0.7 | 1 | -2.0 | 4%
CC(C)Sc1nc(NCc2ccco2)c2c3c(sc2n1)COC(C)(C)C3 | 4 | 0.2 | -2 | -0.6 | 5 | 2.1 | 21%
O=C(NCCCn1ccnc1)c1ccc(COc2ccccc2)o1 | 4 | 2.4 | -4 | 1.3 | -1 | -2.7 | -7%
Cc1cc(Br)c(NC(=O)CCNC(=O)OCc2ccccc2)cc1C | -26 | 4.8 | 12 | -2.9 | 1 | 2.5 | x
CCOc1ccc(-c2nnc(SCc3nnc(-c4ccccc4)o3)n2-c2ccccc2F)cc1 | 59 | -3.7 | -14 | 4.3 | -5 | 5.2 | u
Cc1cc(C)c(S(=O)(=O)NCC(=O)NCc2ccco2)c(C)c1 | 8 | 2.2 | 5 | 4.8 | -4 | u | -6%
CCc1ccc(C(=O)Cn2ccsc2=N)cc1 | 1 | 0.9 | -3 | 1.9 | 24 | -1.0 | x
COc1cc(CNc2ccc(S(N)(=O)=O)cc2)ccc1OCc1ccccc1F | x | -0.7 | 5 | x | x | x | 1%
CCCSc1nsc(NC(=O)Nc2ccc(F)cc2F)n1 | 2 | -4.4 | 13 | -0.3 | 1 | 1.9 | -3%
Cc1ccc(S(=O)(=O)NCCC(=O)NCC(c2ccc(F)cc2)N2CCOCC2)cc1 (configuration not stated) | x | -1.1 | -6 | -0.1 | -13 | x | 6%

Record cards (already shown). Values in the order: Calb FLC | HNF4A DNA FP | Beta2AR agonist | LANA-H2A inh | ALR H2O2 inh | RanGTP-Impb inh | Vif A3G
Record of Cc1cc(Br)c(NC(=O)CCNC(=O)OCc2ccccc2)cc1C : -26 | 4.8 | 12 | -2.9 | 1 | 2.5 | x
Record of Cc1cc(C)n2nc(C(=O)OCCOc3ccc(F)cc3)nc2n1 : -6 | -1.1 | 0 | 9.6 | -8 | 4.9 | 23%
Record of CCc1ccc(C(=O)Cn2ccsc2=N)cc1 : 1 | 0.9 | -3 | 1.9 | 24 | -1.0 | x
Record of CC(=O)OC[C@H]1O[C@H](C/C=N/OC[C@@H](O)[C@H]2O[C@@H]3OC(C)(C)O[C@@H]3[C@H]2O)C=C[C@@H]1OC(C)=O : -3 | x | x | 0.7 | 1 | -2.0 | 4%

The list goes on.
SMILES | Calb FLC | HNF4A DNA FP | Beta2AR agonist | LANA-H2A inh | ALR H2O2 inh | RanGTP-Impb inh | Vif A3G
CCOC(=O)C1=C(C)NC2=C(C(=O)C(C(=O)OCC)C(c3ccco3)C2)C1c1ccccn1 (configuration not stated) | -4 | 1.8 | -4 | 2.4 | -43 | 32* | u
O=C(c1ccc(CS(=O)c2cccc(Cl)c2)o1)N1CCCCCC1 (configuration not stated) | 14 | 1.7 | -8 | -0.3 | 21 | 0.2 | x
COc1ccc(NC(=S)N(CCN2CCOCC2)Cc2cc3cc4c(cc3[nH]c2=O)OCO4)cc1 | -1 | x | x | -0.2 | 21 | -22 | x
Cc1cccc2cc(CN(CC3CCCO3)C(=O)c3cccs3)c(=O)[nH]c12 (configuration not stated) | 9 | -1.4 | -1 | -0.1 | 9 | 0.4 | x
